Compound activity as filed in PubChem BioAssay.
ugtP null kill: compounds lethal to S. aureus RN4220 ugtP deletion mutant | AID 1259309 | OD600 growth, 16 h; some inactives read as strong as hits | growth inhibition, % (concentration not given with the values) | 0.54% of 330,000 active;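 active means z-score under -3 and OD600 up to 0.15 on both plates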;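 further: plate controls were untreated wells for no effect and antibiotic for full effect; wells of about 80 µL received 100 nL stock; the first replicate is given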
PrP UTR inh: inhibition of PrP 5' UTR reporter expression. cell-based PrP 5' UTR mRNA reporter, plate reader. inhibition, % (no concentration beside the values). 0.35% of 340,000 active. AID 488862;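 active means every replicate at 50% or more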;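 further: 0 = median of the neutral control wells; tested in H4 reporter cells; numbers are from one replicate; inactives centre near -14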
Mtb hypoxia inh: Mtb hypoxia fluorescent reporter inhibition | M. tuberculosis hypoxia-regulated fluorescent reporter, fluorescence | fluorescence inhibition, % (test concentration not listed) | 0.1% of 300,000 active;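 active means 35 to 45% if threefold the growth effect, above 45% if 1.5-fold the growth effect; inactive means the rest, general growth blockers included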;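 further: wells of about 50 µL received 100 nL stock; 0% = vehicle wells and 100% = reference inhibitor wells; whole bacteria with a GFP reporter of the hypoxia response; strong numbers were not always called active; many hits fall short of the cut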
Bead autofluor: compound fluorescence in toxin protease inhibitor counterscreen. compound autofluorescence counterscreen, microsphere flow cytometry; stronger effect = higher value. fluorescence intensity (test concentration not listed). 3.1% of 360,000 active;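 active means at least 3 SD above the mean of all compounds, about 16000 in these data; inconclusive means too few beads counted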;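 further: 100 nL of 1 mM stock went into each well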
Sa RN4220 lethal: S. aureus RN4220 growth inhibition; OD600, 16 h; inhibition, % (no concentration beside the values); 0.33% of 330,000 active;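 active means z-score of -3 or lower and OD600 up to 0.18 on both plates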;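 further: plate controls were untreated cells for no effect and reference antibiotic for full effect; stock transfer was 100 nL into about 80 µL; one replicate is shown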
BJeLR viability: kills HRASV12-expressing BJeLR cells | BJeLR (HRASV12) viability, CellTiter-Glo ATP luminescence, 48 h; reference of the scale not given here | inhibition, % (test concentration not listed) | 0.17% of 300,000 active;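 active means replicate mean above 50%; inconclusive means above 50% but judged a plate artefact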;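 further: 50 nL library stock added to about 25 µL; numbers are from one replicate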
Mtb hypoxia inh growth: further read-out of Mtb hypoxia inh, marked with its call; growth inhibition, %; measured here: M. tuberculosis growth (absorbance);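 0% = vehicle and 100% = reference antibiotic; read after six days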
Active calls of the source: *; u = inconclusive; x = no result given.

SMILES	ugtP null kill	PrP UTR inh	Mtb hypoxia inh	Mtb hypoxia inh growth	Bead autofluor	Sa RN4220 lethal	BJeLR viability
CN(C)C(=O)Oc1cccc(NC(=O)c2ccccc2C(F)(F)F)c1	7	-30	11	3	u	1.7	-2
O=C(COc1ccc(Cl)cc1Br)N1CCN(c2ccccc2)CC1	2	-6	6	8	3137	0.5	-7
CC(NS(=O)(=O)c1ccc2[nH]c(=O)c(=O)[nH]c2c1)C(=O)O (centres undefined)	5	2	12	0	4219	1.5	-4
O=C(CSc1nnc(SCc2ccc(F)cc2)s1)Nc1ccc(C(=O)O)cc1	13	-8	-1	0	3999	2.0	-6
Cc1ccc(C(=O)NNC2CC(=O)N(c3ccc4c(c3)OCCO4)C2=O)cc1 (centres undefined)	-4	-12	-4	0	4452	0.8	3
CCC(=O)Nc1ccc(N2CCN(CC)CC2)c(Cl)c1	-3	-13	4	9	3095	-15	17
O=C(c1ccccc1-c1nc(-c2ccccc2)no1)N1CCCC1	-1	-36	x	x	4772	1.0	2
CC[C@]12c3[nH]c4cc(CCC(=O)N(C)C)ccc4c3CCN1C(=O)[C@@H](CC(=O)NCCc1ccccn1)C[C@@H]2C(=O)N1CCN(C(=O)C2CC2)CC1	0	2	-10	4	3832	3.5	x
CCn1cc(C(=O)N2CCCC(N3CCN(c4ccccc4C)CC3)C2)cn1 (centres undefined)	-3	7	4	4	7104	2.5	4
O=C1CC(c2ccccc2)CN1C(=O)c1cccnc1 (centres undefined)	3	-4	-2	-2	4483	3.9	-1
O=C(Nc1ccccc1)c1ccc(S(=O)(=O)N2CCCC2)cc1	4	-2	7	3	8199	5.3	3
CCOc1ccc(NC(=O)CC2SC(N)=NC2=O)c([N+](=O)[O-])c1 (centres undefined)	2	-28	-3	6	3934	7.6	-12
COc1cc(S(=O)(=O)Nc2ccccn2)ccc1F	-3	-19	10	4	10420	5.0	0
COP(=O)(CC(=O)O)c1ccccc1 (centres undefined)	6	-20	12	13	11387	4.2	8
Cc1ccc(S(=O)(=O)CCC(=O)OCC(=O)N2c3ccccc3NC(=O)C2(C)C)cc1	-5	-12	3	0	5308	2.6	0
CN=C(Nc1ccc(C)c(C)c1)SC1CC(=O)N(c2ccc(OC)cc2)C1=O (centres undefined)	-1	-9	15	12	2503	-2.8	-6
CCN(CC)c1c(-c2ccccc2)c2cc(C)ccc2[nH]c1=O	3	-3	-2	-7	5426	11	-7
Cc1nnc(NC(=O)c2cc(S(=O)(=O)N(C)C)ccc2N2CCCC2)s1	6	-16	3	2	8659	2.2	x
COc1cccc(CNC(=O)C2CCN(S(=O)(=O)N3CC(C)CC(C)C3)CC2)c1 (centres undefined)	0	-6	0	11	5616	-4.3	-4
C=CCn1c(Cc2cccs2)nnc1SCC(=O)c1ccc2ccccc2c1	-6	-12	12	6	23327*	17	1
COc1cc(C(=S)N2CCOCC2)cc(OC)c1OS(=O)(=O)c1ccc(C)cc1	17	-18	15	7	3529	2.8	9
CCN(CC)S(=O)(=O)c1ccc(N2CCCCC2)c(NC(=O)C2CCN(C(=O)c3ccc(F)cc3)CC2)c1	1	-1	15	12	5285	0.0	6
O=c1[nH]c2ccccc2o1	9	-33	x	x	3907	2.3	x
C[C@@H]1C(=O)O[C@@H]2[C@H](O)C34[C@@H]5OC(=O)C3(O[C@H]3OC(=O)[C@H](O)C34[C@H](C(C)(C)C)[C@H]5O)[C@@]12O (some centres undefined)	x	-2	x	x	2957	x	-4
CCN1CCN(C(=S)c2ccc([N+](=O)[O-])cc2)CC1	2	-15	12	8	1910	5.5	-6
Cc1ccc(C)c(NC(=O)C2CC=CCC2C(=O)O)c1 (centres undefined)	2	-4	x	x	5186	3.0	5
C=CCN(C1CCCCC1)S(=O)(=O)c1ccc2c(c1)oc(=O)n2C	3	-16	x	x	4270	4.6	1
CC1(C)CC(NC(=O)CCc2nnc(CCCCc3ccccc3)o2)CCO1 (centres undefined)	8	-13	2	2	2554	4.0	5
O=C(CNC(=O)c1ccc(Cl)cc1)NC1CCCCC1	-8	-8	-6	5	5153	-4.6	-1
O=C1OCCN1C(=O)[C@H]1[C@H](c2ccc(Cl)cc2)C(c2cccc(Cl)c2)=NN1c1ccc(Br)cc1	8	-49	2	2	3317	-3.9	x
COc1ccc(NS(=O)(=O)c2cc(NC(=O)C3CCCO3)ccc2N2CCCC2)cc1 (centres undefined)	3	-19	5	7	4551	1.0	1
COc1ccc(CCNC(=O)C2CCN(S(=O)(=O)c3c(C)noc3C)CC2)cc1OC	5	-8	x	x	2183	1.3	-3
CCC(NC(=O)Nn1cnnc1)(C(F)(F)F)C(F)(F)F	3	-23	12	18	9451	3.5	2
CCCCn1c(SCC(=O)N2CCOCC2)nc2ccccc2c1=O	5	-1	6	8	5362	3.0	-9
COC(=O)c1cc(COC(=O)c2cccnc2SC)oc1C	2	-8	3	2	3886	2.6	-23
Cc1csc(NC(=O)CCn2c(=O)oc3ccccc32)n1	-2	-19	5	5	9235	2.7	1
COCCN1C(=O)N[C@@H](c2cccc(C(F)(F)F)c2)C(C(=O)OC)=C1C	x	6	x	x	3614	x	-11
COc1ccc(NC(=O)c2ccc3[nH]c(=O)c(=O)[nH]c3c2)c(OC)c1	1	-6	2	-5	4497	0.5	7
COc1ccccc1NC(=O)C1=C(C)Nc2nnnn2C1c1cc(Br)ccc1OC (centres undefined)	-12	-11	-5	-2	23731*	-2.1	-4
O=C(CCNS(=O)(=O)c1ccc(Br)cc1)NNC(=O)C1COc2ccccc2O1 (centres undefined)	5	-10	1	1	2975	2.6	x
Cc1ccc(NC(=O)CSc2nnc(-c3cnccn3)n2C)cc1C	7	-22	3	1	5454	3.3	2
CCN(CC)S(=O)(=O)c1cccc(NC(=O)CN2C(=O)c3ccc([N+](=O)[O-])cc3C2=O)c1	1	-3	-1	8	2054	5.4	1
Cc1c(CN(C)C)c2c(n1Cc1ccccc1)C(=O)c1ccc(Br)cc1-2	-28	-3	9	18	10147	-11	3
CC(=O)NS(=O)(=O)c1ccc(NS(=O)(=O)c2ccccc2[N+](=O)[O-])cc1	6	-14	3	7	4246	1.3	0
CC(=O)N1c2ccccc2C(CBr)=CC1(C)C	1	-25	20	0	6024	4.5	-4
COc1ccc(CNCCc2c[nH]c3ccccc23)c(OC)c1OC	x	-27	x	x	4181	x	-6
CCc1ccccc1Nc1nc(N)nc(CSc2nnc3ccccn23)n1	2	-7	-13	9	3537	3.2	5
COc1cc(NC(=S)N2CCCC(C)C2)c(OC)cc1Cl (centres undefined)	9	-10	0	7	4578	4.7	2
COc1cc(C=NNC(=O)c2ccoc2C)ccc1O	-3	x	2	3	x	-6.7	x
CC(C)CSc1nnc(N)s1	-1	-19	5	9	4432	4.2	5

Entries listed so far that have a furan ring, fused or not:
SMILES	ugtP null kill	PrP UTR inh	Mtb hypoxia inh	Mtb hypoxia inh growth	Bead autofluor	Sa RN4220 lethal	BJeLR viability
COC(=O)c1cc(COC(=O)c2cccnc2SC)oc1C	2	-8	3	2	3886	2.6	-23
COc1cc(C=NNC(=O)c2ccoc2C)ccc1O	-3	x	2	3	x	-6.7	x

Back to the main list with the three entries that preceded the break.
SMILES	ugtP null kill	PrP UTR inh	Mtb hypoxia inh	Mtb hypoxia inh growth	Bead autofluor	Sa RN4220 lethal	BJeLR viability
COc1cc(NC(=S)N2CCCC(C)C2)c(OC)cc1Cl (centres undefined)	9	-10	0	7	4578	4.7	2
COc1cc(C=NNC(=O)c2ccoc2C)ccc1O	-3	x	2	3	x	-6.7	x
CC(C)CSc1nnc(N)s1	-1	-19	5	9	4432	4.2	5
CC(=O)Nc1c(NCC(C)C)c2ccccc2oc1=O	-2	-22	8	-3	9338	-1.6	-8
O=C(CCC(NC(=O)OCc1ccccc1)C(=O)O)OCc1ccccc1 (centres undefined)	3	-11	-3	-2	4216	4.2	3
O=C(Cn1nc(C(F)F)cc1C(F)F)NN=Cc1ccc2c(c1)OCO2	-2	x	4	-2	x	1.2	x
O=C(CSc1nc(-c2ccc(F)cc2)cs1)NC(=O)NCc1ccco1	-14	-15	3	9	10803	2.0	-12
COc1ccc(NC(=O)c2ccc(COc3ccccc3OC)o2)cc1OC	22	-13	-6	4	2350	-2.9	9
Cc1ccccc1C(=O)N/N=C/c1ccncc1	x	-14	x	x	19987*	x	2
Cc1nc([N+](=O)[O-])c(NCCO)n1Cc1ccccc1	6	-7	-2	-4	4834	-0.8	-6
Cc1ccccc1S(=O)(=O)NC1OC(=O)C(Cl)=C1Cl (centres undefined)	x	-2	x	x	10946	x	-4
COc1ccc(C(=O)CN2C(=O)c3ccccc3S2(=O)=O)cc1Br	0	13	2	-5	6044	2.8	4
C=CCn1c(-c2ccccc2)nc2nc3ccccc3nc21	5	-20	21	25	3247	7.2	3
O=C(NC1CCSc2ccccc21)c1cc(S(=O)(=O)N2CCOCC2)ccc1F (centres undefined)	4	-1	12	-1	5619	3.5	4
COc1ccc(C(=O)NCC(=O)NCC2(N(C)C)CCCCC2)cc1OC	-6	-32	12	-2	8826	3.1	6
COc1cccc(C(=O)Nc2cc(C(=O)NCc3ccc(C)cc3)ccc2N2CCC3(CC2)CC(c2cccc(Br)c2)=NO3)c1	3	-11	11	9	3091	7.7	x
O=[N+]([O-])c1ccc(NC(c2ccccc2)c2ccc3cccnc3c2O)cc1 (centres undefined)	-9	36	18	8	3415	7.9	x
O=C(COc1ccccc1F)Nc1c2c(nn1-c1ccccc1)CS(=O)(=O)C2	-5	-12	2	-1	5708	4.2	1
Cc1cc(NC(=O)CCC(=O)N(CC(=O)NC2CCCC2)Cc2ccc(F)cc2)no1	7	-20	x	x	4487	2.2	-14
C[C@H](CO)N1C[C@H](C)[C@@H](CN(C)C(=O)Nc2ccccc2)Oc2c(NC(=O)Nc3ccc(C(F)(F)F)cc3)cccc2C1=O	-13	-7	0	14	3847	-19	x
CC(NC(=O)COC(=O)C1CCN(c2ccc(C(F)(F)F)cn2)CC1)c1ccc(F)cc1 (centres undefined)	10	-4	4	-3	3844	-6.7	x
CN1CCN(CCNC(=O)c2cn(Cc3ccccc3F)nn2)CC1	9	-3	3	14	2044	2.2	-4
COc1ccc(Cn2nc(-c3ccccc3)c(N3CCCCC3)cc2=O)cc1	-15	-7	4	5	1967	-3.5	-9
O=c1ccc(NS(=O)(=O)c2ccc(Cl)cc2)cn1Cc1ccc(Cl)c(Cl)c1	-12	0	0	1	7938	15	4
CCn1c(Cc2ccccc2)nnc1SCC(=O)Nc1ccccc1F	0	-19	1	-1	4188	10.0	-13
OC(COCc1ccco1)CN1CCN(c2ccccc2)CC1 (centres undefined)	-3	-15	12	10	10587	2.0	-11
O=C(NCc1ccccc1C(F)(F)F)C1CC(c2ccccc2[N+](=O)[O-])=NO1 (centres undefined)	5	-24	1	12	3763	8.1	-7
c1ccc(SCc2nc3ccccc3s2)nc1	23	-48	8	13	4313	7.1	-7
COC(C[C@@H](O)[C@H](C)[C@@H](O)COCc1ccccc1)OC	x	-20	x	x	3811	x	5
Cc1nn(CC(=O)Nc2nc3ccccc3s2)c(C)c1[N+](=O)[O-]	-6	-10	2	6	8927	2.0	-7
S=c1[nH]nc(C2CC2c2ccc(Cl)cc2)n1-c1ccc(Cl)cc1 (centres undefined)	1	-12	-6	-8	1983	-5.2	-6
COc1ccc(NC(=O)C(=O)NN=Cc2cccnc2)cc1	15	x	9	7	x	4.5	x
C/C(=C\COc1ccc2ccc(=O)oc2c1)CC[C@@H](O)C(C)(C)O	-5	-31	8	1	3905	-11	x
CN(CC(=O)Nc1ccc(Cl)cc1)CC(=O)Nc1ccc(F)c(F)c1F	-6	-24	2	8	1907	-1.3	-22
Cc1cccc(N2CCN(C(=O)C3CCCCC3)CC2)c1C	0	-49	6	13	10532	6.8	-10
COc1ccc2oc(=N)c(C(=O)Nc3cccc(C)c3C)cc2c1	4	-57	7	-7	3728	3.7	-14
COC(=O)CSc1ccc2nnc(-c3ccc(OC)c(OC)c3)n2n1	9	-16	3	-1	5861	2.3	6
CCOC(=O)C1CCN(CC(C)(C)NS(=O)(=O)c2ccccc2)CC1	1	-15	5	6	3636	3.3	1
Cc1ccc(Cn2nc(C)c(C(=O)N3CCN(S(=O)(=O)/C=C/c4ccccc4)CC3)c2C)cc1	-2	-12	10	2	8215	1.9	x

Compounds were not picked by outcome, and some 4% of all compounds hit somewhere here.
